Source: PubChem (several laboratories)
ALR inh – inhibitors of human sulfhydryl oxidase ALR | P55789 | purified ALR, DTT oxidation, H2O2 HRP-luminol luminescence | inhibition, % (test concentration not listed) | 3.8% of 290,000 active | AID 485317;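 active = mean and each replicate at 75% or more; inconclusive = only one of the two met; inactive = neither met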;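 also: stock transfer was 7.5 nL into about 7.5 µL; 0% = neutral wells and 100% = wells with inactivated enzyme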
Target sequence (P55789 whole entry, looked up): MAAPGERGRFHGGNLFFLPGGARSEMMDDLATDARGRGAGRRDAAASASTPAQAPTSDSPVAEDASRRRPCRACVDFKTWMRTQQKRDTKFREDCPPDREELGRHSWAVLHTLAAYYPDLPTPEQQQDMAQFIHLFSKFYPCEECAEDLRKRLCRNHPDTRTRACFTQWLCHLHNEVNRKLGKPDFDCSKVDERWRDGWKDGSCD
FGF22 binding – shifts melting point of recombinant human FGF22; 1.5% of 340,000 active; AID 651658; Q9HCT0; calls only at 9.99 µM; recombinant FGF22 thermal shift, SYPRO orange fluorescence; percent of sucrose octasulfate shift, DMSO zero;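 active = melting point raised past a set limit in the mean and every replicate; inconclusive = no clear call; three in four hits are not shown here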
LANA-H2B inh – blocks KSHV LANA binding to histone H2A/H2B; Q9QR71; cell-free LANA-H2A/H2B peptide, fluorescence polarization; inhibition, % (test concentration not listed); 0.6% of 320,000 active; AID 2629; in the data active = inhibition mostly above about 10%, no sharp cut-off; inactive = mostly below about 6.7%;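 also: stock transfer was 7.5 nL into about 10 µL; 0% = median of vehicle wells and 100% = median of positive control wells; one replicate is shown; the record names a cut of 25% in any replicate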
E coli growth – E. coli growth inhibition. AID 1053175. Escherichia coli growth, OD600, 23 h; active compounds read low. OD600 absorbance (test concentration not listed). 0.21% of 330,000 active;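 active = OD600 absorbance below the run mean of sample wells minus 3.6 SD, in any replicate, cut at about 0.56 in these data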;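 also: stock transfer was 300 nL into about 60 µL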
Beta2AR agonist – activates human beta-2 adrenergic receptor causing internalization | P07550 | Am2.2-beta2AR cells, FAP receptor internalization, flow cytometry; reference of the scale not given here | response, % (concentration not given with the values) | 0.43% of 340,000 active | AID 504454;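 active = response above a set limit, near 3 SD of response in nonfluorescent compounds, cut at about 42% in these data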;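 also: stock transfer was 100 nL into about 11 µL; a reference agonist was the positive control; negative values mostly stem from fluorescent compounds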
HNF4A DNA FP – change in binding of human HNF4 alpha to DNA; P41235; HNF4a-FITC DNA binding, fluorescence polarization, 1 h; activity change, % at 10 µM; 0.3% of 360,000 active; AID 1224865; in the data active = activity change above about 30%, passing the limit was not always enough;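 also: controls were the assay level and a saturating level of protein; the project sought stronger binding though the title names inhibitors; some compounds called inactive have numbers as strong as hits; positive values seem to mean higher polarization but the record does not say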
Target sequence (P41235 whole entry, looked up): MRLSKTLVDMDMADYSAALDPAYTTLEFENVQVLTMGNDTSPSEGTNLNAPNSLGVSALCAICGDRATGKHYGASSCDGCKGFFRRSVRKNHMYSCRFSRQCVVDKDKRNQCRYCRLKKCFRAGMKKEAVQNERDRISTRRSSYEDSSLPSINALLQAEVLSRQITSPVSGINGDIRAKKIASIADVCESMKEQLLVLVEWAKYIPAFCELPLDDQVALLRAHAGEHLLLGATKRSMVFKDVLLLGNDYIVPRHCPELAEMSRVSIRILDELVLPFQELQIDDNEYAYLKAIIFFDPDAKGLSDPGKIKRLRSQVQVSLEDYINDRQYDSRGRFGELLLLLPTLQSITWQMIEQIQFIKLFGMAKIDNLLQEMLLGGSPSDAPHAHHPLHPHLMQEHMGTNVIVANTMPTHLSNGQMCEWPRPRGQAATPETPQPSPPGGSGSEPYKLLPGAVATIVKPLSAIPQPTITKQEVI
UCH37 inh – human UCH37 deubiquitinating enzyme inhibition; Q9Y5K5; purified proteasome/UCH37, Ub-AMC cleavage fluorescence; inhibition, % (no concentration beside the values); 0.33% of 330,000 active;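 active = mean of two replicates above 20%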;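 also: 0% = compound-free wells with enzyme and 100% = wells lacking proteasome; stock transfer was 100 nL into about 20 µL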
Target sequence (Q9Y5K5 whole entry, looked up): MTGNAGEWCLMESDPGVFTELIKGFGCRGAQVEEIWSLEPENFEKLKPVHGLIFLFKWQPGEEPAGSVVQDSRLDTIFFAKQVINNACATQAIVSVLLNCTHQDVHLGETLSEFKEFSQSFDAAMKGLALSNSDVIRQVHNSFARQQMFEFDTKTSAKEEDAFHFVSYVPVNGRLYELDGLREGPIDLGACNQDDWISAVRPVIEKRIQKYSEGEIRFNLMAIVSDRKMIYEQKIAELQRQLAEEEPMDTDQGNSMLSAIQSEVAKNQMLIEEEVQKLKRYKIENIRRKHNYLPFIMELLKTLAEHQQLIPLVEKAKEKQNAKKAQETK
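Reagent: Ub-AMC substrate; assay system: Proteasome-associated human UCH37 deubiquitinase; controls: no-proteasome and no-compound wells; read-out: % inhibition of Ub-AMC cleavage fluorescence; timing: 30 min preincubation with enzyme, 25 min cleavage at room temperature; signal: AMC fluorescence from Ub-AMC cleavage, excitation 355 nm, emission 460 nm; buffer or medium: Tris-HCl pH 7.4 plus ovalbumin, ATP-MgCl2, DTT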
An asterisk follows results filed as active; i = inactive; ? = inconclusive; / = not tested or not shown. Only part of the results is shown. The share of hits here may be higher or lower than overall.

SMILES	ALR inh	FGF22 binding	LANA-H2B inh	E coli growth	Beta2AR agonist	HNF4A DNA FP	UCH37 inh
COCCN(Cc1ccc(C)c(Br)c1)C(=O)Cn1cnc(S(=O)(=O)N2CCCC2)c1	-6	i	4.5	0.7	-5	0.8	3.7
COc1cc2c(cc1NC(=O)CSc1nnc(COc3ccc(Cl)cc3)n1C)oc1ccccc12	-9	/	-0.8	0.69	1	5.0	1.0
CN(C(=O)CSc1nnc(-c2ccc(F)cc2)n1C)C1CCS(=O)(=O)C1 (centres undefined)	/	i	2.4	0.67	-1	0.5	0.7
O=C(c1ccco1)N1CCN(C(=O)c2ccc(CS(=O)c3ccc(F)cc3)o2)CC1 (centres undefined)	1	i	2.3	0.67	-5	1.8	2.9
Cc1[nH]n(-c2ccccc2)c(=O)c1N=Nc1ccc2c(c1)OCCO2	-5	i	4.7	0.71	-7	1.7	4.8
Cc1ccc2nc(SCC(=O)Nc3ccc(F)cc3F)nc(=O)n2c1	-3	i	1.6	0.68	-2	0.4	6.1
COc1cc2c(cc1OC)C(=S)NC1(CCCC1)C2	-2	i	-0.5	0.67	1	1.2	2.5
c1ccc(-c2cc(-c3ccncc3)nc3ccc4ccccc4c23)cc1	-3	i	-4.4	0.67	3	3.0	-38
CCCn1c(=O)c2ccccc2n2c(SCCOc3ccc(OC)cc3)nnc12	-5	i	-4.6	0.67	-1	-1.5	4.3
CC(=O)N[C@@H](Cc1ccc(O)cc1)CN1C(N)=NC[C@@H]1CC(C)C	8	i	4.8	/	3	1.9	5.5
Cc1c(NS(=O)(=O)c2ccc3c(c2)c(=O)n(C)c(=O)n3C)c(=O)n(-c2ccccc2)n1C	-1	/	-1.2	0.65	1	-3.1	3.3
CCN(CC)c1ccc(/C=N/N2CCOCC2)c(O)c1	?	/	-4.1	/	5	3.1	/
O=C(COC(=O)CCC(=O)c1ccc(F)cc1)NCCc1ccccc1	-1	i	0.3	0.71	0	-3.6	0.8
CC(C)[C@H](NC(=O)[C@@H]1Cc2ccccc2CN1)C(=O)Nc1ccc2c(c1)OCCO2	-11	i	-1.6	0.67	3	-2.9	4.3
Cc1ccc2nc3nc(NCC4CCCO4)c(C(=O)NC4CCCC4)cc3c(=O)n2c1 (centres undefined)	0	/	4.0	0.69	3	0.4	-165
Cc1occc1C(=O)N/N=C/c1ccc[nH]1	3	i	1.3	/	-4	0.0	/
CCc1c(C)nc2ncnn2c1NCCc1ccc(Cl)cc1	-6	i	1.9	0.66	-3	-3.5	3.3
COc1ccc(-c2nc(CS(=O)(=O)CC(=O)NC3CCCCC3C)c(C)o2)cc1 (centres undefined)	23	i	0.2	0.68	-3	0.9	-0.7
Cc1ccc(S(=O)(=O)N2CCN(C(=O)CN3C(=O)NC(C)(CCC(C)C)C3=O)CC2)c(C)c1 (centres undefined)	/	i	/	0.7	-8	4.5	1.0
Cc1cccc(C)c1NC(=O)C1CCCN1S(=O)(=O)c1ccc(-c2ccc(=O)[nH]n2)s1 (centres undefined)	-8	i	2.0	0.69	-1	5.1	4.5
O=C1c2ccccc2C(Nc2ccc(-c3nc4ccccc4[nH]3)cc2)N1Cc1ccco1 (centres undefined)	-10	i	5.4	0.81	4	-1.2	-2.6
Cc1sc(NC(=O)CN(Cc2ccc(F)cc2)C(=O)C(C)(C)C)c(C(N)=O)c1C	-6	i	1.5	0.73	0	-1.6	5.0
CCC(C)c1ccc(NC(=S)NC2CCN(Cc3ccccc3)CC2)cc1 (centres undefined)	7	i	0.9	0.67	18	-0.2	1.4
COC(c1ccc(Cl)cc1)(c1ccc(Cl)cc1)C(Oc1nc(C)cc(C)n1)C(=O)O (centres undefined)	6	i	0.4	0.67	-8	1.6	4.0
COc1ccc(/C=N/NC(=O)c2ccc(-c3ccccc3)cc2)cc1O	33	i	-5.7	/	6	-2.0	/
The results go on:
SMILES	ALR inh	FGF22 binding	LANA-H2B inh	E coli growth	Beta2AR agonist	HNF4A DNA FP	UCH37 inh
CCOc1ccc(-n2cc(-c3ccccc3)c3c(N4CCOCC4)ncnc32)cc1	-6	i	3.6	0.67	4	-2.3	-3.6
Cc1ccc(C(C(=O)NC2CCCCC2)N(CCCN2CCOCC2)C(=O)c2snc(C(N)=O)c2N)cc1 (centres undefined)	-4	i	-5.1	0.7	2	3.3	-37
Cc1nc2ccccc2nc1OCC(=O)Nc1ccccc1	-5	i	0.6	0.7	0	-0.1	-12
CC(C)(C)C1=CC(=Nc2ccccc2N)C=C(C(C)(C)C)C1=O	-18	i	1.6	0.71	3	6.0	4.2
Cc1c(C)n(CCc2ccccc2)c2ncnc(NCCCO)c12	/	i	-5.5	0.66	6	1.6	4.0
CCOC(=O)C(C)n1nc(/C=C/c2ccc(OC)cc2)ccc1=O (centres undefined)	1	i	-1.2	0.65	-2	0.7	-30
S=C(NCc1ccc(Cl)cc1)Nc1ccccc1Cl	-10	/	1.1	0.71	1	0.1	3.1
Cc1ccc(C(=O)Nc2cnc3sc(C)nn3c2=O)cc1	0	/	-0.4	0.7	-8	1.0	4.0
O=C(N/N=C/c1ccc(Cl)s1)C(O)c1ccccc1 (centres undefined)	-4	i	0.8	/	6	0.0	/
Cc1cccc(Cl)c1NC(=O)N1CCN(c2ccnc3cc(Cl)ccc23)CC1	/	i	3.0	0.66	1	4.1	1.9
COc1cccc(NC(=O)N2CCN(c3ccc(C(F)(F)F)cn3)CC2)c1	0	/	-1.0	0.74	-1	-1.9	-4.4
CCOc1cc(/C=C2/C(=O)N(c3ccccc3)N=C2C)ccc1OC(=O)c1cccs1	-4	i	0.6	0.67	24	-1.0	7.0
O=C(CCCNS(=O)(=O)c1ccc(F)cc1)Nc1ccc(F)cc1	-3	i	-9.9	0.7	-2	1.6	1.6
CCOC(=O)C(=O)N1CCC(Cc2ccccc2)CC1	0	i	0.9	0.68	4	3.0	3.2
CC(=O)c1ccc(N2CCN(C(=O)c3ccc(S(=O)(=O)NCc4ccco4)cc3)CC2)cc1	-2	i	0.1	0.73	-4	-1.0	3.8
CCOC(=O)C1CCN(C(=O)Cc2cccs2)CC1	-4	/	2.3	0.67	18	-1.4	3.9
COc1ccc(OC)c(-c2csc(NC(=O)Cc3cccs3)n2)c1	-9	/	-5.8	0.68	32	2.6	3.4
CSc1nc2c(c(=O)[nH]1)C(c1ccc(Cl)cc1)CC(=O)N2 (centres undefined)	4	i	-0.9	0.7	-7	-4.1	0.0
CC(=O)N1CCN(c2ccc(NC(=O)c3ccc(F)cc3)cc2)CC1	10	i	5.0	0.67	6	-3.1	3.3
CCCCNC(=O)/C=C/c1cccs1	12	/	-2.9	0.67	-7	0.2	3.9
COc1ccc(C(=O)Cn2c(NCCO)nc3ccccc32)cc1	0	i	-14	0.66	1	-6.3	4.0
CCOC(=O)c1cc(NC(=O)N2CCCc3ccccc32)c(C)nc1C	2	/	3.0	0.69	27	0.1	2.7
Cc1cc(C)nc(NC(=O)c2ccc3c(c2)OCO3)c1	-5	/	1.6	0.65	/	/	4.0
Cc1c(C(=O)OCC(=O)NC2CCCCC2)oc2ccccc12	0	i	-3.3	0.69	3	3.4	0.5
O=C(COC(=O)CN1C(=O)NC2(CCCCC2)C1=O)Nc1cc(F)ccc1F	/	i	10	0.7	0	2.3	2.0

Fetched by compound from the list above (5):
SMILES	ALR inh	FGF22 binding	LANA-H2B inh	E coli growth	Beta2AR agonist	HNF4A DNA FP	UCH37 inh
S=C(NCc1ccc(Cl)cc1)Nc1ccccc1Cl	-10	/	1.1	0.71	1	0.1	3.1
COC(c1ccc(Cl)cc1)(c1ccc(Cl)cc1)C(Oc1nc(C)cc(C)n1)C(=O)O (centres undefined)	6	i	0.4	0.67	-8	1.6	4.0
O=C(COC(=O)CCC(=O)c1ccc(F)cc1)NCCc1ccccc1	-1	i	0.3	0.71	0	-3.6	0.8
COc1cccc(NC(=O)N2CCN(c3ccc(C(F)(F)F)cn3)CC2)c1	0	/	-1.0	0.74	-1	-1.9	-4.4
CC(C)(C)C1=CC(=Nc2ccccc2N)C=C(C(C)(C)C)C1=O	-18	i	1.6	0.71	3	6.0	4.2

The listing continues:
SMILES	ALR inh	FGF22 binding	LANA-H2B inh	E coli growth	Beta2AR agonist	HNF4A DNA FP	UCH37 inh
O=C(Nc1ccc2c(c1)CCC2)c1cc(S(=O)(=O)N2CCN(c3ccccc3)CC2)ccc1Cl	-6	/	4.5	0.72	4	22	5.9
CN(C)c1nc(NNC(=O)c2ccccc2)nc(N(C)C)n1	/	i	/	/	6	-2.0	/
CC(C)C(=O)Nc1cccc(NC(=S)NC(=O)c2ccc(Cl)cc2)c1	12	/	0.4	0.73	-3	-3.1	4.4
Cc1sc(NC(=O)CCCC(=O)O)c(C#N)c1C	9	/	-4.0	0.68	10	0.3	2.6
COc1cc(/C=N/NC(=O)CCNC(=O)c2ccccc2Cl)ccc1O	99*	i	-1.4	/	0	-1.5	/
O=c1[nH]cnc(O)c1C1C=CC=CC=C1	/	i	/	0.64	2	-1.6	0.9
Cc1cc(C(=O)NNC(=O)c2cccc(S(=O)(=O)N3CCOCC3)c2)c2ccccc2n1	3	/	0.2	0.75	-10	1.5	3.5
CCOC(=O)c1cnc(SCC(=O)NNC(=O)c2ccco2)nc1N	/	i	2.6	0.69	-4	2.3	4.2
Cc1c2ccccc2cc[n+]1CCCS(=O)(=O)[O-]	-14	/	-1.9	0.7	1	-5.2	-9.2
COc1ccc2[nH]c(-c3cccc(F)c3)cc(=O)c2c1	-7	i	2.5	0.66	13	2.3	-38
CC(=O)Nc1cccc(Oc2ccc(-c3noc(C)n3)cc2)c1	-1	/	3.9	0.69	-8	-0.8	5.3
O=C(NCc1ccco1)C1CCN(S(=O)(=O)c2cccc3cccnc23)CC1	8	i	-1.3	0.76	0	0.8	6.3
O=c1c2c(O)cc(O)cc2oc2c(O)ccc(O[C@H]3O[C@@H](CO)[C@H](O)[C@@H](O)[C@@H]3O)c12	20	i	3.4	/	0	-7.7	2.6
CCn1cc(/C=C(\NC(=O)c2cc(OC)c(OC)c(OC)c2)C(=O)NCCN2CCOCC2)c2ccccc21	1	i	-0.4	0.72	1	3.3	15
CCC(CC)c1nnc(NC(=O)CS(=O)(=O)c2ccc(C)cc2)s1	-3	/	3.7	0.72	2	0.7	4.6
CCCCCn1c(=O)c2ccccc2n2c(=S)[nH]nc12	21	i	1.9	0.69	8	5.0	6.2
Nc1c(NCCN2CCOCC2)c2ccccc2oc1=O	-4	/	-4.4	0.72	0	2.1	-3.2
CC(C)N(C(=O)COC(=O)[C@H](C)NC(=O)c1ccco1)c1ccccc1	-4	i	-3.6	0.69	17	1.9	0.7
CCOC(=O)C1CC2=C(CCCC2=O)NC1=O (centres undefined)	/	i	/	0.69	-4	-0.5	3.5
CCOC(=O)N1CCN(CC(O)c2ccc3c(c2)CCN3)CC1 (centres undefined)	82*	i	-3.2	0.68	6	3.0	-0.1
O=C(/C=C/c1ccco1)N1CCN(c2ccccc2)CC1	50	i	-3.6	0.7	-10	-2.0	7.1
Clc1ccc(NNc2ccnc3cc(Cl)ccc23)cc1	/	/	3.1	0.69	-4	13	2.9
O=C(Nc1ccccc1N1CCCC1)c1ccc([N+](=O)[O-])o1	?	i	1.5	0.67	-7	-2.4	3.2
Cc1csc(NC(=O)c2ccc3c(=O)n4c(nc3c2)CCCCC4)n1	3	i	-1.6	0.69	-15	1.7	2.1
O=C(NNc1cccc(Cl)n1)Nc1ccccc1Cl	/	/	-2.6	0.72	3	1.6	0.0
OCCNCC12CC3CC(CC(C3)C1)C2	/	i	-1.3	0.71	-2	-0.8	0.4
COc1ccc(-c2nc(CCNC(=O)c3cccs3)cs2)cc1	/	i	-1.2	0.73	-16	-3.0	5.2
CCc1c(C)nc(SCC(=O)Nc2cccc(Br)c2)[nH]c1=O	-2	/	3.6	0.69	0	-5.2	4.6
COc1ccc(CNC(=O)CCc2nnc3ccc(NCCCN4CCCC4=O)nn23)cc1	-5	i	-4.5	0.65	-1	-2.8	-3.0
COC(=O)c1ccc(NC(=O)C(=O)N2CCN(C(=S)Nc3ccc(C)cc3)CC2)cc1	-7	i	-0.3	0.67	-1	0.6	1.6
